From PubChem
RN4220 kill: S. aureus RN4220 growth inhibition | OD600, 16 h | inhibition, % (test concentration not listed) | hit rate 0.33% among 330,000;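 active = z-score of -3 or lower and OD600 up to 0.18 on both plates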;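 note: plate controls were untreated cells for no effect and reference antibiotic for full effect; stock transfer was 100 nL into about 80 µL; one replicate is shown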
Autofluor counter: compound fluorescence in toxin protease inhibitor counterscreen | hit rate 3.1% among 360,000 | compound autofluorescence counterscreen, microsphere flow cytometry; hits give high values | fluorescence intensity (test concentration not listed);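 active = at least 3 SD above the mean of all compounds, about 16000 in these data; inconclusive = too few beads counted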;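 note: 100 nL of 1 mM stock went into each well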
BJeLR lethal: kills HRASV12-expressing BJeLR cells; inhibition, % (concentration not given with the values); hit rate 0.17% among 300,000; AID 1554; BJeLR (HRASV12) viability, CellTiter-Glo ATP luminescence, 48 h; reference of the scale not given here;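 active = replicate mean above 50%; inconclusive = above 50% but judged a plate artefact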;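 note: 50 nL library stock added to about 25 µL; numbers are from one replicate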
ugtP null kill: compounds lethal to S. aureus RN4220 ugtP deletion mutant | OD600 growth, 16 h; some inactives read as strong as hits | growth inhibition, % (test concentration not listed) | hit rate 0.54% among 330,000 | AID 1259309;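 active = z-score under -3 and OD600 up to 0.15 on both plates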;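 note: plate controls were untreated wells for no effect and antibiotic for full effect; wells of about 80 µL received 100 nL stock; the first replicate is given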
Mtb hypoxia inh: Mtb hypoxia fluorescent reporter inhibition. M. tuberculosis hypoxia-regulated fluorescent reporter, fluorescence. fluorescence inhibition, % (test concentration not listed). hit rate 0.1% among 300,000. AID 1159583;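 active = 35 to 45% if threefold the growth effect, above 45% if 1.5-fold the growth effect; inactive = the rest, general growth blockers included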;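 note: wells of about 50 µL received 100 nL stock; 0% = vehicle wells and 100% = reference inhibitor wells; whole bacteria with a GFP reporter of the hypoxia response; strong numbers were not always called active; many hits fall short of the cut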
PrP 5UTR inh: suppresses PrP 5' UTR mRNA reporter expression; cell-based PrP 5' UTR mRNA reporter, plate reader; hit rate 0.35% among 340,000; AID 488862; inhibition, % (no concentration beside the values);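 active = every replicate at 50% or more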;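 note: 0 = median of the neutral control wells; tested in H4 reporter cells; numbers are from one replicate; inactives centre near -14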
Mtb hypoxia inh growth: also measured in Mtb hypoxia inh; calls as there; growth inhibition, %; measured here: M. tuberculosis growth (absorbance);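 0% = vehicle and 100% = reference antibiotic; read after six days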
Active calls of the source: *; ? = inconclusive; nt = no result given.

SMILES	RN4220 kill	Autofluor counter	BJeLR lethal	ugtP null kill	Mtb hypoxia inh	Mtb hypoxia inh growth	PrP 5UTR inh
COc1ccc(C2=NN(C(=O)CSc3nnc(C)c(=O)n3N)C(c3ccco3)C2)cc1 (configuration not stated)	1.8	4141	14	1	1	-2	-18
Cc1cc(C)cc(C(=O)NCC(=O)OCC(=O)NC2CCCc3ccccc32)c1 (configuration not stated)	2.9	3984	nt	2	9	7	-9
Cc1cccc2nc(CSc3ccc(Cl)cc3)cn12	19	4342	5	2	13	16	-39
C[C@@H]1CC=C[C@@H]2[C@H]1C(=O)N(Cc1ccccc1)[C@H]2c1ccccc1Br	-7.2	3102	nt	23	-6	6	-15
CCOC(=O)C1(C)C=C(Nc2cccc(OC)c2)C(=O)N1c1ccccc1 (configuration not stated)	nt	?	-4	nt	nt	nt	-29
Cc1ccc(-c2nn(-c3ccccc3)cc2/C=C2\SC(=S)N(CC(=O)O)C2=O)cc1	20	5827	4	18	14	10	-8
Cc1ccc(SCc2ccc(C(=O)Nc3cccc([N+](=O)[O-])c3)cc2)cc1	1.1	12833	12	-2	-7	-1	-1
COc1ccc(C(=O)Nc2sc3c(c2C(=O)O)CC(C)(C)OC3)cc1	1.7	2322	-10	-2	-8	3	-21
CCOc1ccc(NC(=O)C2Cc3ccccc3CN2S(=O)(=O)CC)cc1 (configuration not stated)	0.1	4486	1	3	-5	5	-34
CCC12CN3CC(CC)(CN(C1)C3c1ccc([N+](=O)[O-])o1)C2=O (configuration not stated)	5.5	4764	-3	6	12	9	-21
CCC(=O)Nc1cc(-c2nn(C)c(=O)c3ccccc23)ccc1N1CCOCC1	4.6	9232	-9	17	2	-3	-22
O=C(CCNC(=O)c1ccco1)Nc1ccc(OC(F)F)c(Cl)c1	4.3	3596	-2	-7	-4	2	-16
COCCNC(=O)C(=O)NCC1OCCN1S(=O)(=O)c1cc(F)ccc1F (configuration not stated)	0.2	6085	4	0	6	2	-14
Cc1cc(C(C)(C)C)cc(C)c1C(=O)O	4.3	3860	1	17	17	2	-18
Cc1ccccc1-n1cc(CNC(=O)C2CCC(=O)N(C3CC3)C2)cn1 (configuration not stated)	-0.2	nt	9	1	1	-2	-14
CC(=O)c1cccc(NC(=O)c2cc(=O)c3ccccc3o2)c1	3.8	4142	-1	0	14	9	-15
Cc1cnn(C(=S)NCc2ccc(Cl)cc2)c1	-10	nt	-3	-1	-15	-4	nt
N#C/C(=C\Nc1ccc(F)c(Cl)c1)S(=O)(=O)c1ccccn1	-3.2	5767	-4	-3	-7	10	-18
CCC(CC)C(=O)c1c[nH]c(C(=O)OC)c1	2.1	5716	7	5	14	6	-20
O=C(Cn1c(=O)c2c(ncn2Cc2ccccc2)n(Cc2ccccc2)c1=O)N1CCCC1	4.9	2610	0	6	nt	nt	8
Cc1ccc(-n2c(Cc3cccs3)nnc2SCC(N)=O)cc1	0.3	16452*	11	7	8	6	-17
Cc1ccccc1C(=O)NC1CCN(Cc2nnnn2Cc2ccccc2)CC1	7.2	10508	0	-8	-1	12	-29
O=C(NCC(c1cccnc1)N1CCN(c2ccc(F)cc2)CC1)C1CCCCC1 (configuration not stated)	-0.3	2681	4	10	4	4	69*
Cc1ccc(NC(=O)CN(C)C(=O)c2cc(-c3cccs3)nn2-c2ccccc2)cc1	5.7	9339	nt	1	11	6	-40
COc1cc(C(=O)NCCNC(=O)c2ccc(C)nc2)cc(OC)c1OC	4.5	2937	-10	5	6	-2	-10
CN1CCN(c2ccc(CNC(=O)c3ccco3)cc2)CC1	-2.4	3668	-16	-4	-9	-4	-36
CCOc1ccc(/C=N\NC(=O)c2c(C)nc3cc(C)ccn23)cc1	nt	4930	9	nt	nt	nt	-4
COc1cc(C(=O)NC2CCCc3ccccc32)cc(OC)c1OC (configuration not stated)	3.3	4408	-5	-6	17	1	-10
CN1CCC(=NNC(=O)CN(c2cccc(Cl)c2)S(C)(=O)=O)CC1	3.0	1909	-7	8	11	17	-9
C=Cn1cc[n+](CC(=O)c2ccc(Br)cc2)c1	2.2	3577	-2	6	2	0	-4
CCN(C(=O)CSc1nnc(-c2ccccc2C)n1C)c1c(N)n(Cc2ccccc2)c(=O)[nH]c1=O	1.0	5396	nt	12	6	2	-24
CCCc1nc2c(=O)n(C)c(=O)nc-2n(C)n1	38	2991	nt	25	15	11	-3
CCC1(CC)NC(=O)N(Cc2nc3ccccc3s2)C1=O	-1.9	3377	-9	-8	11	5	-27
O=C(CS(=O)(=O)c1ccccc1)N(CCCN1CCOCC1)c1nc2c(F)cccc2s1	nt	6252	4	nt	nt	nt	-40
O=C(CN1C(=O)NC2(CCCC2)C1=O)OCCOc1cccc(Br)c1	1.4	6017	-2	-1	-3	7	-9
O=C(NCCn1cccn1)C1CCC(=O)N(CCc2ccc(Cl)cc2)C1 (configuration not stated)	-0.2	5830	0	2	-1	2	-24
CC(=O)NCCc1cc2ccc(C)cc2[nH]c1=O	2.3	2100	-6	13	nt	nt	-15
CCn1nc(NC(=O)CC(C)C)c2cc3ccc(C)cc3nc21	2.5	3606	-1	2	12	-3	6
O=C(Cc1cccs1)Nc1ccc(F)c(F)c1	1.5	3150	9	13	10	14	-7
O=C(Nc1ccc(Cl)cc1)C1CCCN(c2ncnc3c2nc2n3CCCCC2)C1 (configuration not stated)	17	5833	12	-2	3	3	-11
COC(=O)c1ccc(NC(=O)Nc2ccc3c(c2)nc(C)n3C)cc1	-0.6	4691	-9	15	-4	3	-35
CC(C)(C)OC(=O)NCCCCCNC(=O)c1[nH]cnc1C(=O)N[C@@H](Cc1ccccc1)C(=O)OCc1ccccc1	nt	4035	-9	nt	nt	nt	4
CCOC(=O)Cc1csc(NC(=O)/C=C/c2cccc(Br)c2)n1	2.2	4389	3	2	-2	9	-23
CC(Sc1nc(-c2ccccc2)cc(=O)[nH]1)C(=O)O (configuration not stated)	1.4	24389*	-2	3	8	4	1
CCCN(CCC)S(=O)(=O)c1ccc(NC(=O)C2CCCO2)cc1 (configuration not stated)	0.0	2757	10	-6	nt	nt	-6
CC(C)n1nc(C(=O)NCc2ccc3c(c2)OCO3)c2ccccc2c1=O	4.0	4636	0	8	13	8	-1
CCCN1CCN(C(=O)CCCn2c(C)c3cnn(-c4ccccc4)c(=O)c3c2C)CC1	2.0	6317	-5	1	2	10	-13
Cc1ccc(NS(=O)(=O)c2ccc(CCC(=O)NC3CC3)cc2)cc1	8.4	23092*	-2	5	7	4	-10

Ordered by molar mass (highest first): 3 of the compounds above.
SMILES	RN4220 kill	Autofluor counter	BJeLR lethal	ugtP null kill	Mtb hypoxia inh	Mtb hypoxia inh growth	PrP 5UTR inh
CCCN1CCN(C(=O)CCCn2c(C)c3cnn(-c4ccccc4)c(=O)c3c2C)CC1	2.0	6317	-5	1	2	10	-13
CC(C)n1nc(C(=O)NCc2ccc3c(c2)OCO3)c2ccccc2c1=O	4.0	4636	0	8	13	8	-1
CCCN(CCC)S(=O)(=O)c1ccc(NC(=O)C2CCCO2)cc1 (configuration not stated)	0.0	2757	10	-6	nt	nt	-6

(next part)
SMILES	RN4220 kill	Autofluor counter	BJeLR lethal	ugtP null kill	Mtb hypoxia inh	Mtb hypoxia inh growth	PrP 5UTR inh
COc1ccc(Nc2nccc(-c3ccc(C#N)cc3)n2)cc1	4.2	3781	0	2	5	2	7
O=C(NC1CCCCC1)c1ccc(CS(=O)(=O)Cc2ccccc2F)o1	24	2486	0	20	4	3	0
CC(=O)/C(CN1CCCCC1)=N\O	nt	11117	0	nt	nt	nt	-46
CCC(=O)NNC(=O)CSc1nnc(-c2ccccc2)c(-c2ccccc2)n1	-3.1	3538	5	12	2	-2	-60
CCC(NC(=O)C1CCC1)c1ccccc1 (configuration not stated)	4.4	9549	-7	0	8	4	-11
CCOc1ccccc1C(=O)NCC(=O)NCCCSc1ccccc1	1.5	5356	-1	5	0	4	-10
COc1cc(OC)c(C(=O)NC2CCCc3ccccc32)cc1OC (configuration not stated)	6.2	4817	6	0	4	-8	-14
COc1ccccc1CNCC(=O)Nc1ccc(N(C)C)cc1	-2.2	3896	1	-1	17	11	-25
COC(C/C=C/C(=O)[C@@H](C)OCc1ccccc1)OC	nt	3632	-3	nt	nt	nt	-4
COc1ccc(CCNC(=O)C2CC2)cc1	2.0	nt	3	11	10	3	-10
CCCc1nn(-c2cc(Cl)ccc2OC)c2c1C(=O)CC(C)(C)C2	-0.8	4938	-1	7	6	6	-24
COc1ccc(CNC(=O)C2(CC3CC(c4ccccc4)=NO3)CCN(C(=O)OC(C)(C)C)CC2)cc1 (configuration not stated)	1.4	3370	16	1	-2	4	4
O=C(c1ccccc1Oc1ccccc1)N1CCN(c2ccccc2F)CC1	2.9	2303	-3	12	nt	nt	-10
CCCCn1c(=O)n(CC(=O)NCc2ccc(C)cc2)c(=O)c2c1nc(CO)n2CCC	5.0	3619	2	-3	4	2	-9
Cc1occc1C(=O)Nc1ccc(Br)cc1F	0.8	3414	6	-4	nt	nt	-31
CCCCOc1ccc(C(=O)N=c2sccn2C)cc1OC	14	12137	-2	12	16	6	-61
O=C(O)c1ccc(S(=O)(=O)N2CCc3ccccc3C2)cc1	-0.2	3220	8	11	-1	-3	-37
COc1cc(C(=O)N(Cc2ccc(N(C)C)cc2)C2CCS(=O)(=O)C2)cc(OC)c1OC (configuration not stated)	1.3	4227	7	2	nt	nt	-26
O=C(NCc1cccc(C(F)(F)F)c1)c1ccc2c(c1)OCO2	2.4	4196	-11	10	25	14	-32
C/C(=N\N=C(N)N)c1cccc([N+](=O)[O-])c1	nt	2156	-8	nt	nt	nt	12
CC(=O)N(c1nc(CCl)cs1)c1cccc(C)c1C	12	4454	5	2	7	7	-39
CN(Cc1c(F)cccc1Cl)C(=O)c1cnc2ccccc2n1	5.0	6378	0	-3	19	6	-18
CN(Cc1ccccc1)S(=O)(=O)c1ccc(Cl)c(C(=O)O)c1	4.1	3725	4	4	12	9	-21
C/C(=N\NC(=O)CC1N=C(Cc2ccccc2)NNC1=O)c1ccncc1 (configuration not stated)	nt	6194	-3	nt	nt	nt	-4

Some of the entries above in a different format.
Each structure is followed by: RN4220 kill | Autofluor counter | BJeLR lethal | ugtP null kill | Mtb hypoxia inh | Mtb hypoxia inh growth | PrP 5UTR inh
Cc1occc1C(=O)Nc1ccc(Br)cc1F
 : 0.8 | 3414 | 6 | -4 | nt | nt | -31
O=C(NCc1cccc(C(F)(F)F)c1)c1ccc2c(c1)OCO2
 : 2.4 | 4196 | -11 | 10 | 25 | 14 | -32

Continued:
SMILES	RN4220 kill	Autofluor counter	BJeLR lethal	ugtP null kill	Mtb hypoxia inh	Mtb hypoxia inh growth	PrP 5UTR inh
CCOc1ccc(/C(O)=C2/C(=O)C(=O)N(CC3CCCO3)C2c2ccc(C)o2)cc1 (configuration not stated)	nt	3388	-3	nt	nt	nt	-4
Cc1ccc(S(=O)(=O)N2C[C@@H]3CCCC[C@@H]3[C@@H](C)[C@H]2CC(=O)c2ccccc2)cc1	0.5	3804	nt	5	-27	1	-27
Cn1c(-c2cc(Br)ccc2O)n[nH]c1=S	2.2	11809	-10	1	5	17	-4
Cn1cc(C(=O)N2CCc3ccccc3C2)c(=O)c2cc(S(=O)(=O)N3CCOCC3)ccc21	1.9	4112	3	8	13	6	-3
Cc1ccnc(S(=O)(=O)Cc2ccc([N+](=O)[O-])cc2)n1	1.3	3310	-6	1	4	6	-23
Cn1c2ccccc2c2c(C(=O)N3CCC4(CC3)OCCO4)cn(C3CCCC3)c(=O)c21	-0.8	3461	-1	3	1	2	-2
N#CCSc1ccccc1NC(=O)CN1C(=O)C2CC=CCC2C1=O (configuration not stated)	2.0	nt	nt	2	7	-1	-13
CCN(CC)c1ccc(C=Nc2ccccc2)c(O)c1	9.1	3510	-2	-3	nt	nt	-1
O=C1C(=Cc2ccc(Br)o2)C(=O)c2ccccc21	13	7134	nt	3	18	6	-24
CCOc1ccc(NS(=O)(=O)c2cccc(C(=O)N3CCN(C/C=C/c4ccccc4)CC3)c2)cc1	2.9	3790	nt	6	3	7	-5
COc1cc(S(=O)(=O)n2cnc3ccccc32)ccc1Br	5.4	4357	-6	5	13	-2	-23
Cc1cn(C2CCCCO2)c(=O)[nH]c1=O (configuration not stated)	0.5	3503	nt	-1	14	10	-2
COc1ccc(-c2csc(NC3OC(=O)c4c3ccc(OC)c4OC)n2)cc1OC (configuration not stated)	3.2	3706	11	7	-10	-6	-14
